Source: PubChem
Ba CapD inh – inhibitors of Bacillus anthracis CapD enzyme. 140,000 tested, 0.23% active. purified CapD enzyme, fluorescence intensity read-out; active compounds read low; some hits fall short of the stated cut. z-score (test concentration not listed);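 active means z-score under -4 in either of two replicates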;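 further: stock transfer was 100 nL into about 40 µL; score is relative to mean and spread of the plate; one replicate is shown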
AID504770 – E. coli YBA685 growth inhibition, screen for V. cholerae RctB inhibitors. E. coli YBA685 rctB-dependent plasmid, OD600 growth, 3 h; active compounds read low. 130,000 tested, 0.27% active. z-score (no concentration beside the values). AID 504770;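 active means z-score under -2 on both plates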;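 further: wells of about 30 µL received 100 nL stock; score is relative to mean and SD of the test wells; the first replicate is given; strong numbers were not always called active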
* = called active by the depositor; / = no result given; & = joins results of further samples. Compounds as they come, and some 0.37% of all compounds hit somewhere here.

canonical_smiles	Ba CapD inh	AID504770
CC(C)C(CC(=O)O)NCc1ccccc1Cl (configuration not stated)	0.315	0.6
C=CCn1c(C#N)c(N)sc1=N	/	-0.65
CCCCc1cc(=O)oc2cc(OC(C)=O)cc(OC(C)=O)c12	10.3	-0.55
CC(=O)NC(C)(C)COc1ccc(Cl)cc1	0.385	0.45
CCC(=O)Nc1sc2c(c1C#N)CC(C)(C)NC2(C)C	/	-0.55
N#Cc1ccc(COC(=O)COc2ccccc2)cc1	0.14	0.85
O=C1CCCC2=C1C(c1ccc(OCc3ccccc3)cc1)C1=C(CCCC1=O)O2	-0.16	/
Cc1nccn1CC(=O)N/N=C/c1ccc(O)c(O)c1	/	0.05
Cc1ccc(CSC2NCC(C)N2)cc1C (configuration not stated)	-0.81	-0.45
Cn1c([N+](=O)[O-])cnc1COC(N)=O	0.245&-0.355	-1.05
COc1cc(Cl)c(C)cc1NC(=O)NCc1noc2ccc(C)cc12	-0.83	-0.6
S=c1[nH]c2cc(Cl)c(Cl)cc2[nH]1	0.72	/
O=C(Nc1ccccc1C(=O)Nc1ccc(Cl)cc1)c1cccc(S(=O)(=O)N2CCCCCC2)c1	-0.095	/
CCOc1ccccc1NC(=S)N(Cc1c[nH]c2ccccc12)C(C)C	0.555	0.05
Cc1ccc2[nH]c3nc(NN)nnc3c2c1	/	-0.8
CC(C)(C)c1cc(C(=O)CN2C3=NCCN3c3ccccc32)cc(C(C)(C)C)c1O	-0.24	/
O=C(c1cccc(F)c1)N1CCN(CCO)CC1	-0.015	-0.4
COC(=O)c1ccc(C2C3=C(CC(c4ccccc4)CC3=O)Nc3ccccc3N2C(=O)C2CC2)cc1 (configuration not stated)	4.54	/
COC(CNC(=O)c1cccc2c1C(=O)N(Cc1cccnc1)C2)OC	-0.795	0.3
O=C1CCN(c2ccc3c(C(F)(F)F)cc(C(F)(F)F)nc3n2)CC1	-0.735	/

Some of the entries above, reformatted.
SMILES: COC(=O)c1ccc(C2C3=C(CC(c4ccccc4)CC3=O)Nc3ccccc3N2C(=O)C2CC2)cc1 (configuration not stated)
  Ba CapD inh: 4.54	AID504770: /
SMILES: COC(CNC(=O)c1cccc2c1C(=O)N(Cc1cccnc1)C2)OC
  Ba CapD inh: -0.795	AID504770: 0.3

(list continues)
canonical_smiles	Ba CapD inh	AID504770
COc1ccc(CCNCC(O)Cn2c3c(c4ccccc42)CCN(C)C3=O)cc1OC (configuration not stated)	1.24	1.3
Cc1ccccc1CC1S/C(=N/c2ccccn2)NC1=O (configuration not stated)	-0.115	/
COc1ccc(-c2nnc(SCc3cccc(C(F)(F)F)c3)o2)cc1	-0.315	/
Cc1cc2c(n1-c1ccc(C(=O)NC(C)c3ccccc3)cc1)CCCC2 (configuration not stated)	0.54	-0.6
O=C(Nc1ccc(NC(=O)c2ccc(Br)c(S(=O)(=O)N3CCCCC3)c2)cc1)c1ccccc1	0.895	/
O=C(CCN1C(=O)C2C3C=CC(C3)C2C1=O)NC1CCCc2ccccc21 (configuration not stated)	-0.81	0.9
COc1ccc(CN2CCCC(C(N)=O)C2)cc1 (configuration not stated)	-0.045	1.85
Oc1ccccc1-c1nnc(SCc2ccccc2)n1-c1ccccc1	6.68	0.2
CC(=O)Nc1ccc2c(c1)CCC2=O	-0.04	1.3
COC(=O)C1=NNC(C(=O)OC(C)(C)C)C1c1ccccc1 (configuration not stated)	0.305	0.1
CCSCCOC(=O)C1=C(C)NC2=C(C(=O)CC(c3ccccc3)C2)C1c1ccc(OC)c(OC)c1 (configuration not stated)	12.3	/
CN(CCN)Cc1ccccc1	/	-0.1
FC(F)(F)c1cccc(COCCn2cc(-c3ccncn3)cn2)c1	0.19	/
c1csc(-c2ccn3cnnc3n2)c1	106	-0.15
Cc1cccc(S(=O)(=O)N2CCN(c3c(Cl)cncc3Cl)CC2)c1	-0.08	/
Cc1cc(=O)oc2cc(OCC(=O)NCC3CCCO3)ccc12 (configuration not stated)	34.1	-0.25
N#CCCn1c(-c2cncs2)nc2ccccc21	2.42	-0.95
CSCC(CSC)OC(=O)Nc1ccc(Cl)cc1	-0.15	-1.4
COC(=O)c1ccc(CSc2nc(-c3ccc(OC)cc3)nc3c2c(=O)n(C)c(=O)n3C)o1	1.54	1.95
COc1ccc(Cl)cc1NC(=O)CN1C(=O)CC(c2ccccc2)S(=O)(=O)c2ccccc21 (configuration not stated)	0.205	0.15

In a second layout: entries from further up
Results follow in this order: Ba CapD inh, AID504770
COc1ccc(-c2nnc(SCc3cccc(C(F)(F)F)c3)o2)cc1
→ -0.315, /
Cc1cc2c(n1-c1ccc(C(=O)NC(C)c3ccccc3)cc1)CCCC2 (configuration not stated)
→ 0.54, -0.6
COC(CNC(=O)c1cccc2c1C(=O)N(Cc1cccnc1)C2)OC
→ -0.795, 0.3
CCOc1ccccc1NC(=S)N(Cc1c[nH]c2ccccc12)C(C)C
→ 0.555, 0.05
N#CCCn1c(-c2cncs2)nc2ccccc21
→ 2.42, -0.95

Further structures follow:
canonical_smiles	Ba CapD inh	AID504770
O=C(COc1ccccc1)Nc1cccc(-c2nc3ncccc3o2)c1	5.75	-0.45
COCc1[nH]c(=S)[nH]c(=O)c1Cc1c(F)cccc1Cl	-0.83	1.55
Nc1ccc(Cl)cc1-c1ncon1	1.84	-0.1
O=C(CC1SC(=NCc2ccccc2)NC1=O)NC1CC1 (configuration not stated)	/	0.05
C1=C2CCc3c([nH]c4ccccc34)C2N(c2ccccc2)N1 (configuration not stated)	114	-0.2
SCCNc1n[nH]c(Nc2ccccc2)n1	/	0.25
Cc1[nH]nc2c1C1(C(=O)N(C(=O)c3ccccc3)c3ccccc31)C(C#N)=C(N)O2 (configuration not stated)	-0.37	/
COc1ccc(C(=O)CSc2nc3ccccc3c(=O)[nH]2)cc1C	-0.365	/
O=C(O)c1nn(Cc2ccccc2)nc1C(=O)O	0.41	-0.3
Cc1nc2cc(-c3ccccc3)nn2c(C)c1CCC(=O)NC(C)c1ccc2c(c1)OCCO2 (configuration not stated)	19.4	-0.1
Cc1ccc(-n2ncc3c(N4CCN(c5ccc([N+](=O)[O-])cc5)CC4)ncnc32)c(C)c1	-0.34	/
CC1=C(C(=O)OCC2CCCCC2)C(c2ccccc2OCc2ccccc2)NC(=O)N1 (configuration not stated)	-0.43	/
COc1ccc(N(C)C(=O)c2cn(C3CCCC3)c(=O)c3c2c2ccccc2n3C)cc1	-0.775	2.8
O=c1c(COCc2ccc(Cl)cc2Cl)cc2cccc3c2n1CCC3	-0.115	/
Cc1ccc(-n2nnc(C(=O)NCC3CCCO3)c2N)cc1F (configuration not stated)	/	0.05
COc1ccc(Nc2nc(N3CCN(S(C)(=O)=O)CC3)nc3ccccc23)cc1	/	1.75
Cc1ccccc1NC(=O)CSC1CCCCC1	-0.025	2
O=C(O)c1ccc(-c2ccc(Br)cc2)cc1	-1.26	0.05
CCC(C)N1CC(C(=O)NCCc2ccc(Cl)cc2)CC1=O (configuration not stated)	0.275	-0.3
COc1ccc(CNC(=O)CCC2CCCC2)cc1OC	/	0.2
COc1ccccc1N(CC(=O)NCc1ccco1)S(C)(=O)=O	-0.215	-1.2
N#Cc1c(-c2cccs2)nc(Nc2ccccc2)[nH]c1=O	0.94	-0.2
Nc1nnc(CCS(=O)(=O)c2cc(Cl)ccc2Cl)s1	/	1.2
COc1ccc(NC(=O)CS(=O)c2cccc(C(F)(F)F)c2)cc1 (configuration not stated)	0.625	/
COc1ccc(C2C3=C(CCCC3=O)OC3=C2C(=O)CCC3)c(OC)c1	-0.29	/
CCOC(=O)CC1(O)CCOC(C)(C)C1 (configuration not stated)	0.255	0.75
CCCOc1ccc(C=Nc2ccc(N3CCN(C)CC3)cc2C)c(O)c1	/	-0.45
COc1cc2ncnc(NCCO)c2cc1OC	15.5	0.65
CCN(CC)S(=O)(=O)c1ccc2[nH]cc(C(=O)NCCCN3CCCCC3)c(=O)c2c1	12.8	1.5
O=C(c1sc(N2CCOCC2)nc1-c1ccccc1)c1c[nH]c2ccccc12	0.1	-0.15
COC(=O)c1ccc2c(c1)C(=O)/C(=C/c1ccc(O)cc1)O2	0.35	0
COc1ccc(C2=NC3(CCN(Cc4cccc(OC)c4)CC3)NC2=O)cc1	-0.73	-1.25
CCC(NC(=O)c1ccccc1NC(=O)c1ccccc1)C(=O)N1CCN(C)CC1 (configuration not stated)	-0.055	/
COc1cc2ncnc(NCc3ccc(Cl)c(Cl)c3)c2cc1OC	7.71	/
CCOC(=O)c1sc(CS(=O)(=O)c2ccccn2)nc1C	0.035	-0.5
CCn1c(=O)c2cc(C(=O)N3CCN(C(=O)c4ccco4)CC3)sc2c2ccccc21	7.23	-0.3
Cc1cccc(N(C)C(=O)CCn2ccc(C)n2)c1	0.41	-0.4
COc1ccc(OCC(=O)N2c3ccccc3C(Nc3ccccc3)CC2C)cc1 (configuration not stated)	0.18	/
O=C(CSc1ncc(-c2ccc(Br)cc2)[nH]1)N1CCOCC1	/	1.15
CN(C)S(=O)(=O)Oc1ccc(C#N)cc1	0.38	/
Cc1ccc(NC(=O)N2CCOC23CCN(c2ncccn2)CC3)cc1	4.5	/
COc1ccc(OC(=O)c2cccnc2Oc2ccccc2)cc1	1.1	/
CNc1cc(CSC)nc(SCc2ccc(Cl)cc2Cl)n1	0.145	/
CCN(CC)c1ccc(C(=O)OCC(=O)c2ccco2)cc1	/	-0.1
Cc1ccc(-c2cc(C(=O)N/N=C/C=C/c3ccccc3)n[nH]2)o1	-0.69	-0.25
Cc1ccccc1-n1c(N)cc(=O)n(Cc2cccs2)c1=O	0.52	0.75
Cc1c(C(=O)Nc2nc3ccccc3s2)sc2ncn(CC(=O)Nc3cccc(C(F)(F)F)c3)c(=O)c12	23.5	/
N#C/C(=C\c1ccc2c(c1)OCO2)c1ccccc1	/	0.6
COC1C(OC)N(S(=O)(=O)c2ccc(C)cc2)CCN1S(=O)(=O)c1ccc(C)cc1 (configuration not stated)	-0.115	-0.2
CC1N(C(=O)N(C)C)CCN1S(=O)(=O)c1ccccc1 (configuration not stated)	/	0.15

Next records follow.
canonical_smiles	Ba CapD inh	AID504770
CCN1C(=O)c2cccc3c(NC(C)=O)ccc1c23	-2.59	0.05
O=C(Nc1c(F)cc(F)cc1Br)c1cc(S(=O)(=O)NCc2ccc(F)cc2)ccc1F	-0.49	/
COC(=O)CSC1=C(C#N)C(c2ccccc2C)C2=C(CCCC2=O)N1 (configuration not stated)	0.145	1.9
CN(C1CCN(Cc2ccccc2OCc2ccccc2)C1)S(=O)(=O)c1cccc(Br)c1 (configuration not stated)	0.225	/
CN(CC(=O)N1CCCCC1)c1nnc(N2CCCC2=O)s1	-0.27	-0.25
COc1ccc(-c2nnsc2N)cc1	0.41	0.5
O=[N+]([O-])c1ccc(OCc2ccccc2)c(Cl)c1	-0.26	/
O=C1CCC(=O)N1CC(=O)N1N=C(c2ccc(Cl)cc2)CC1c1ccco1 (configuration not stated)	/	0.35
COc1ccc(C2CC(=O)N(c3ccccc3)C3=C2C(=O)OC3)cc1OC (configuration not stated)	/	0.65
Cc1ccc(C2NC(=O)c3c(sc4c3CCCC4)N2)c(O)c1 (configuration not stated)	-0.495	/
CCN(CC)CCCNc1nc2cc(OC)c(OC)cc2c2nc(-c3ccccc3)nn12	0.455	-0.85
CCOc1ccc(NC(=S)N(Cc2cn(CC)c3ccccc23)C(C)C)cc1	-0.055	-0.2
N#Cc1cccc(NC(=O)CCc2nc(-c3cccs3)no2)c1	-0.365	-1.85
O=C(NC1=NCCCCCN1)c1ccccc1Cl	0.29	-1.35
COc1cc2nc(NC(=O)c3cccs3)sc(=O)c2cc1OC	-0.32	0.65
Cc1cc(C)nc(OC(Cc2ccc3ccccc3n2)c2cccc(C(F)(F)F)c2)n1 (configuration not stated)	-0.2	/
Cc1nnc(Nc2ccc3c(c2)nc(C)n3Cc2ccccc2)c2ccccc12	-0.3	/
CC(=O)Nc1cccc(Oc2nnc(-c3ccc(C)c(C)c3)c3ccccc23)c1	0.315	/
CCOc1cccc2c1OC(c1ccc(OC)c(OC)c1OC)N1N=C(c3ccc(C)o3)CC21 (configuration not stated)	-0.955	/
Cc1ccc(N2CCN(C(=O)OCC3(c4ccc(Cl)cc4)CC3)CC2)c(C)c1	0.35	/
COCc1nnc(NC(=O)Cc2ccccc2)s1	0.275	-0.5
Cc1nnc(NC2CC2)c2c1nnn2Cc1ccc(F)cc1	-0.035	-1
CC(=O)c1cccc(NC(=O)CSC2=C(C#N)C(c3ccccc3C)C3=C(CCCC3=O)N2)c1 (configuration not stated)	4.88	/
CCOC(=O)CN1C(=O)S/C(=C\c2ccc(-c3ccc(Cl)cc3Cl)o2)C1=O	-0.15	-0.75
COc1ccc2cc(C=NCc3ccc(C)cc3)c(N3CCCCC3)nc2c1	0.885	/
COc1ccccc1N=C1SCC(=O)N1Cc1ccco1	-0.745	/
C=CCn1c(N)cc(=O)nc1SC(C)C(=O)Nc1ccccc1 (configuration not stated)	0.65	-0.3
OC(CN1CCN(c2ccccc2)CC1)c1ccc2c(c1)CCN2 (configuration not stated)	-0.29	0.2
Cc1ccc(-c2nnc(N3CCN(S(C)(=O)=O)CC3)c3ccccc23)cc1	/	-0.5
